CDC25B-CDK2 inh = human CDC25B-CDK2/CyclinA binding inhibition. P30305+P24941. HTRF CDC25B-CDK2/CyclinA binding, anti-His/anti-Flag; active compounds read high. z-score (concentration not given with the values). actives 0.72% (n = 94,000). AID 1259370;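 also: score is relative to mean and SD of negative controls; strong numbers were not always called active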
TAR Tat displ = HIV-1 TAR-Tat binding disruption; HIV-1 TAR RNA, Tat peptide displacement FRET; active compounds read high; z-score (test concentration not listed); actives 0.6% (n = 100,000); AID 1259389;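 also: score is relative to mean and SD of negative controls; some compounds called inactive have numbers as strong as hits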
Active calls of the source: *; nt = no result given.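 The calls were made as follows: active = z-score from 3 up in half or more of its runs; inactive = the rest.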 Compounds were not picked by outcome; any-hit rate near 0.97%.

SMILES	CDC25B-CDK2 inh	TAR Tat displ
CN=C(C)/C(C(=O)OC)=C(/O)c1c([N+](=O)[O-])c(C)nn1C	-0.51	nt
COc1ccc(-n2c(Cc3cccn3C)nnc2SCC(=O)Nc2ccc(F)cc2)cc1	-2.03	nt
CCN(Cc1ccccc1)S(=O)(=O)c1cc(-c2cc(C)no2)ccc1C	nt	2.05
O=C(NCc1ccco1)c1cnc2sc(N3CCOCC3)nn2c1=O	nt	0.62
Cc1ccsc1CNCC(C)O (stereo not drawn)	-0.19	-0.31
CN1CCN(c2nc3c(c(=O)n(C)c(=O)n3C)n2Cc2ccccc2Br)CC1	-1.3	nt
C#CCOc1ccc(C2CC(=O)Nc3c2c(C)nn3-c2nncc(-c3ccc(OC)cc3)n2)cc1OC (stereo not drawn)	1.57	2.71
COc1cccc(C2N=C(N)Nc3nc4ccccc4n32)c1 (stereo not drawn)	-2.13	-1.92
Cc1oc2cc(OC(C)C(=O)O)ccc2c(=O)c1Oc1ccccc1 (stereo not drawn)	-1.17	2.17
CCOC(=O)CSc1ncnc2c1oc1ccccc12	0.52	-0.65

3 structures out of the list, sorted by molar mass, descending:
SMILES	CDC25B-CDK2 inh	TAR Tat displ
O=C(NCc1ccco1)c1cnc2sc(N3CCOCC3)nn2c1=O	nt	0.62
COc1cccc(C2N=C(N)Nc3nc4ccccc4n32)c1 (stereo not drawn)	-2.13	-1.92
Cc1ccsc1CNCC(C)O (stereo not drawn)	-0.19	-0.31

An excerpt of these results, in markdown:
| SMILES | CDC25B-CDK2 inh | TAR Tat displ |
| --- | --- | --- |
| O=C(NCc1ccco1)c1cnc2sc(N3CCOCC3)nn2c1=O | nt | 0.62 |
| Cc1ccsc1CNCC(C)O (stereo not drawn) | -0.19 | -0.31 |
| CN1CCN(c2nc3c(c(=O)n(C)c(=O)n3C)n2Cc2ccccc2Br)CC1 | -1.3 | nt |
| C#CCOc1ccc(C2CC(=O)Nc3c2c(C)nn3-c2nncc(-c3ccc(OC)cc3)n2)cc1OC (stereo not drawn) | 1.57 | 2.71 |
| COc1cccc(C2N=C(N)Nc3nc4ccccc4n32)c1 (stereo not drawn) | -2.13 | -1.92 |
| Cc1oc2cc(OC(C)C(=O)O)ccc2c(=O)c1Oc1ccccc1 (stereo not drawn) | -1.17 | 2.17 |

Remaining list, next part.
SMILES	CDC25B-CDK2 inh	TAR Tat displ
Cc1cccc(N2CCN(S(=O)(=O)c3ccc4c(c3)CCN4)CC2C)c1 (stereo not drawn)	nt	0.9
CCN1CCN(C(c2ccc(Br)cc2)c2nnc(-c3ccccc3)o2)CC1 (stereo not drawn)	-1.28	-0.76
CCC(OC(=O)CN1C(=O)C(=O)c2ccccc21)C(=O)Nc1ccc(S(N)(=O)=O)cc1 (stereo not drawn)	-0.19	nt
CNC(=O)c1c(NC(=O)Cc2cccc3ccccc23)sc2c1CCC2	nt	0.33
CC1=C(c2ccccc2)S(=O)(=O)N=C1N1CCC(C)CC1	-2.6	1.17
Cc1c(-c2nc(-c3ccccc3)no2)nnn1-c1ccccc1F	nt	0.79
O=C(NC1CCCCC1)N1CCC(n2nnc3cccnc32)CC1	nt	1.33
CCN(CC)S(=O)(=O)c1ccc2c(c1)CC(C(=O)NC1CCCC1)N2C(C)=O (stereo not drawn)	nt	1.05
COC(=O)c1sccc1N(Cc1ccc(Cl)cc1)S(C)(=O)=O	-1.73	-0.03
COc1ccc2cc3cc(C(=O)N4CCN(C)CC4)sc3nc2c1Cl	nt	-0.96
COC(=O)c1sccc1NC(=O)C1=C(C)C(=O)OC12CCN(C(C)=O)CC2	nt	1.52
CCCN(C1=NC2CS(=O)(=O)CC2S1)c1ccc(Cl)cc1 (stereo not drawn)	-1.24	0.23
CC1(C)CC(=O)C2=C(C1)NC(=O)CC2c1ccc(Cl)cc1 (stereo not drawn)	-0.75	13.6
Clc1ccc2c(c1)C1CC(c3ccccc3)=NN1CO2 (stereo not drawn)	-1.12	nt
C[C@@H]1O[C@@H](O[C@H]2C(Oc3cc(O)c4c(=O)c(O)c(-c5ccc(O)cc5)oc4c3)O[C@H](CO)[C@@H](O)[C@@H]2O)[C@H](O)[C@H](O)[C@H]1O (stereo partly drawn)	nt	1.68
CC(C)c1onc(C(=O)Nc2cccc(Cl)c2)c1[N+](=O)[O-]	1.64	9.27
CCCCN(C1CCN(C)CC1)S(=O)(=O)c1c(C)[nH]c(C)c1C(=O)OCC	nt	0.24
O=c1[nH]c(-c2ccc(F)cc2)no1	-1.33	1.05
Cc1nnsc1C(=O)Nc1ccccc1Br	0.44	1.17
CCCCOC(=O)C(C)Oc1ccc2c(=O)c(-c3ccccc3)coc2c1 (stereo not drawn)	2.33	0.26
CC(N)CCCC(C)(C)O (stereo not drawn)	nt	0.22
CCN(CC)CCNc1c(-c2ccccc2)c(=O)c1=O	nt	1.57
CCOc1ccc(-c2cc(C(=O)O)c3c(-c4ccc(OCC)cc4)[nH]nc3n2)cc1	-0.63	0.68
O=C1CCCc2cc(S(=O)(=O)NCC3CCC(C(=O)NCCc4cccs4)CC3)ccc2N1 (stereo not drawn)	nt	1.12
S=c1[nH]c2cccnc2s1	-0.14	nt
CC1=C(C(=O)N2CCOCC2)C(c2ccc(F)c(Br)c2)C2=C(CCCC2=O)N1 (stereo not drawn)	nt	1.43
C=Cc1c(C)/c2[n-]/c1=C\c1[n-]c(c(CC)c1C)/C=c1\[n-]c3c(c1C)C(=O)C(C(=O)[O-])C=3c1[n-]c(c(C)c1CCC(=O)[O-])\C=2.[Cu].[Na+].[Na+] (stereo not drawn)	nt	23.1*
O=C1CSC(=Nc2cccc(C(=O)O)c2)N1	-1.04	1.13
Cc1nc(SCC(=O)c2ccc(Cl)cc2)c(C#N)c(C)c1C	-1.41	-0.42
O=C1CC(c2nc3ccccc3n2Cc2ccccc2)CN1c1ccccc1Cl (stereo not drawn)	-0.64	1.36
COc1ccc(/C=C\c2cc(C(F)(F)F)n(-c3nc(C(=O)O)cs3)n2)cc1	nt	0.67
Cc1nc2c(sc3nc4c(cc32)COC(C)(C)C4)c(=O)n1C	0.32	nt
COc1ccc(Cl)cc1S(=O)(=O)N1CCCc2ccccc21	-0.09	nt
CSc1nc(C)nc(-n2cccc2)c1C#N	-2.2	nt
O=C(Nc1ccc(Cl)cn1)c1ccc2oc(=O)n(Cc3ccc(F)cc3)c2c1	nt	0.27
COc1ccc2oc(=O)cc(O)c2c1	0.66	nt
Cc1nnc2c3ccccc3c(Cl)nn12	-1.2	nt
COc1ccc(C2=C(C)C(Nc3ccc(Br)c(C)c3)=NS2(=O)=O)cc1	-2.29	0.63
COc1ccc(N2C(=O)C3CCCN3C2c2cccs2)cc1 (stereo not drawn)	-0.16	0.65
Cc1ccc(CN2CCc3nc(N4CCC(C)CC4)ncc3C2)cc1C	nt	-2.58
O=C(COC(=O)c1ccccc1Cl)c1ccc(Br)cc1	-1.38	-0.97
CCOC(=O)c1nc(NCCC(C)C)c2c(C)noc2n1	nt	-0.47
O=C1c2ccccc2C(=O)C1(Nc1cccc(Cl)c1)c1ccccc1	nt	0.51
Cc1cc(=O)[nH]c(/N=C(\N)Nc2ccc(Cl)c(Cl)c2)n1	-0.49	nt
CCN(CC)S(=O)(=O)c1ccc2c(c1)N(CC(=O)N1CCc3ccccc31)C(=O)CO2	-0.8	nt
Cc1ccccc1-c1nc(Cn2c(=O)cc(C(F)(F)F)c3c(C)nn(C)c32)c(C)o1	nt	0.32
O=C1CCCC2=C1C(c1cccs1)N(Cc1cccc(F)c1)c1ccccc1N2 (stereo not drawn)	nt	0.73
Nc1nc2nc(N3CCOCC3)[nH]c2c(=O)[nH]1	-1.32	0.52
O=C(O)c1cccnc1SC1CC(=O)N(c2ccc(OC(F)(F)F)cc2)C1=O (stereo not drawn)	-1.19	nt
COc1ccc(-c2noc3ncnc(N(C)CC(=O)O)c23)cc1	-0.77	1.86

Other structures
SMILES	CDC25B-CDK2 inh	TAR Tat displ
O=C(Nc1nccs1)C1CCN(c2ccc3cc(S(=O)(=O)N4CCCCC4)ccc3n2)CC1	nt	0.89
N#Cc1c(N)nc(Sc2ccc(Cl)cc2)c(C#N)c1-c1cccs1	-0.73	nt
O=C(NCCc1c[nH]c2ccccc12)C1CCN(C(=O)c2ccc(-n3ccc4ccccc43)s2)CC1	nt	0.77
O=S(=O)(Nc1ccc(-c2noc(-c3cc4cc(Cl)ccc4[nH]3)n2)cc1)c1cccs1	nt	1.31
c1ccc(-c2cc(NCC3CC3)n3cnnc3n2)cc1	-0.44	-1.55
COc1cc(/C=C2/S/C(=N/S(=O)(=O)c3ccccc3)NC2=O)c([N+](=O)[O-])cc1OC	-0.16	nt
Fc1ccccc1N1CCN(c2nc(-c3ccccc3)no2)CC1	nt	0.04
CN(C)c1ccc(NC(=O)c2cc(-c3ccc4c(c3)OCO4)nc3ccccc23)cc1	-1.21	0.13
O=c1oc(-c2ccccc2F)nc2c1cnn2-c1ccccc1	-1.24	0.16
CCCN1C(=O)c2cc(C(=O)NCCN3CCCCC3)nn2CC1(C)C(=O)NC1CCCC1 (stereo not drawn)	nt	1.19
Cc1cc(NS(=O)(=O)c2cc3c(cc2C)NC(=O)CO3)ccc1Br	nt	1.63
O=C(Nc1nc(-c2ccccc2)cs1)C(=O)c1c[nH]c2ccccc12	-1	1.95
Cc1cccc(Cn2c(=O)n(Cc3ccco3)c(=O)c3oc4ccccc4c32)c1	nt	1.92
COc1ccccc1Cc1nc(-c2cccnc2)no1	-1.13	-0.23
O=C(NC1CCc2ccccc21)c1cn(-c2ccc(F)cc2)nn1 (stereo not drawn)	1.6	1.01
Cc1c(C(=O)C(=O)NCc2ccco2)c2ccccc2n1C	-0.6	nt
Cc1sc(-n2cccc2)c(C#N)c1C	2.48	-1.86
O=C1c2nccnc2C(=O)N1c1ccccn1	-1	2.04
O=C(CC1(O)C(=O)N(Cc2ccc(Cl)cc2)c2ccccc21)c1ccccc1O (stereo not drawn)	-1.74	nt
Cc1ccc(C(=O)CC2(O)C(=O)N(C(C)C)c3ccccc32)cc1 (stereo not drawn)	0.12	-1.2
CCCS(=O)(=O)N1CCCc2ccc(NS(=O)(=O)c3ccccc3Br)cc21	nt	1.08
Cc1ccc(/C(O)=C2\C(=O)C(=O)N(CCCn3ccnc3)C2c2ccc(Cl)cc2)cc1 (stereo not drawn)	-2.41	-1.21
CCN(c1cccc(C)c1)c1ncnc2c1cnn2-c1ccccc1	-0.24	nt
O=C(NCCCN1CCCC1=O)C1CCN(c2ccc(-c3cccs3)nn2)CC1	nt	-0.84
COc1ccc2c(CC(=O)O)coc2c1	-1.88	nt
CC12CN(C(=O)c3cccs3)CC(C)(CN(C(=O)c3cccs3)C1)C2=O	-1.77	0.69
Cc1cc(C)n2ncc(C(=O)N3CCCCC3)c2n1	nt	-1.48
Cc1ccc(CS(=O)(=O)c2nnc(N)s2)cc1	-2.5	0.84
Cc1c(C(=O)Nc2ccc(F)cc2)oc2ccc3c(c12)C(=O)CC1(CCCC1)O3	-1.42	-3.67
Cc1ccc(C(=O)N2CCN(c3cc(=O)n4nc(-c5ccccc5C)sc4n3)CC2)cc1F	nt	0.62
COC(=O)c1sccc1NC(=O)NCc1noc2ccc(C)cc12	nt	0.31
CC1CCCCN1CCCNC(=O)Cn1c(=O)c2cccn2c2cccnc21 (stereo not drawn)	nt	-0.45
Cc1c(C#N)c2ccccc2n1CC(=O)N1CCc2ccccc2C1	-0.71	0.49
O=c1[nH]c(SCc2cccc(F)c2)nc2c1CCCC2	-1.4	0.48
Cc1nc(=O)c(-c2ccccc2)c(C)n1CCc1c[nH]c2ccccc12	-2.4	-1.82
Cc1ccc2[nH]c(C)c(CN(C)Cc3ccccc3)c(=O)c2c1	0.18	0.31
CN(Cc1ccccc1)C(=O)NC1(C(F)(F)F)Oc2ccccc2O1	-0.54	nt
CC(C)OCCCNC(=O)C1CCN(C(=O)c2cc3sccc3n2C)CC1	-1.85	-0.45
CCC(C(=O)NCCN1CCOCC1)n1nc(C)n2c(cc3sccc32)c1=O (stereo not drawn)	0.81	0.48
CNC(=O)c1ccc(C)c(NC(=O)C2=CSCCO2)c1	nt	2.21

Next section; it opens with the 2 that closed the last part.
SMILES	CDC25B-CDK2 inh	TAR Tat displ
CCC(C(=O)NCCN1CCOCC1)n1nc(C)n2c(cc3sccc32)c1=O (stereo not drawn)	0.81	0.48
CNC(=O)c1ccc(C)c(NC(=O)C2=CSCCO2)c1	nt	2.21
COCCNc1nc(N)c([N+](=O)[O-])c(N2CCN(Cc3ccccc3)CC2)n1	nt	0.02
Cc1ccccc1OCc1nn2c(-c3ccc(F)cc3)nnc2s1	-0.02	2.63
COc1ccc(N2CCN(c3cc(NCCO)c4c5c(onc35)-c3ccccc3C4=O)CC2)cc1	-0.21	2.19
CCN1CCc2c(sc(-n3cccc3)c2CNC(=O)Nc2ccsc2C(=O)OC)C1	-1.26	-0.18
CC1=C(c2ccc(C)c(C)c2)S(=O)(=O)NC1=NCc1ccc(Cl)cc1	-3.99	0.5
O=C1CSc2ccc(S(=O)(=O)CCC(=O)NC3CCCC3)cc2N1	nt	0.86
O=C1/C(=C/c2ccccc2)CCC/C1=C\c1ccccc1	-1.5	nt
CCCn1c(CCc2ccc(NS(C)(=O)=O)cc2)nc2ccccc21	nt	1.81
CCc1cc2c3c([nH]c2cc1S(=O)(=O)N1CCCCC1)CCCC3=O	nt	0.58
Cc1cc(Nc2ccc(F)cc2)nc(-n2nc(C)cc2C)n1	nt	0.42
COc1cccc(OC(C)c2nc3c(C)cccc3[nH]2)c1 (stereo not drawn)	-0.22	2.77
COc1ccc(Cl)cc1N(C)C(=O)c1nn(C)c2c1CSc1ccccc1-2	-0.65	0.94
CCOc1c(CC2C(=O)Nc3ccc(Br)cc32)cccc1OC (stereo not drawn)	1.94	1.29
CCOC(=O)c1noc2ncnc(NCCc3c[nH]c4ccccc34)c12	nt	-0.01
O=C(NC1CCCC1)c1c(O)c2cccc3c2n(c1=O)CC3	nt	1.8
Cc1cc(N2CCc3ccccc3C2)n2nc(-c3ccccc3)nc2n1	1.79	0.32
CCn1ccc2cc(S(=O)(=O)N3CCCC(C(=O)N4CCN(c5ncccn5)CC4)C3)ccc21 (stereo not drawn)	nt	1.11
